Screens deposited in PubChem by National Center for Advancing Translational Sciences (NCATS).
Marburg entry inh: blocks Marburg virus binding to or entry into cells. Marburg virus pseudotyped entry inhibition, cell reporter; control for the full effect not named in the record; about a third of the inactives were read at about 46 µM. Potency, µM (titrated, usually from 37.8 µM), inactives show top-dose activity change, negative = inhibition, most hits filed as inhibitors. actives 1.8% (n = 300,000). AID 540276; active = well fitted inhibition curve with a large enough effect; inconclusive = small, poorly fitted or top-dose-only effect, or effect the other way; inactive = flat fitted curve, though single readings scatter; tested in HEK293 cells; about a fifth of its hits are not listed in these tables; also: % is scaled to controls: 0 for no effect and ±100 for the full control effect; luciferase read-out
RE007 growth inh: less growth of the S. pombe RE007 Vpr strain; S. pombe RE007 Vpr strain, BacTiter-Glo ATP luminescence, 24 h; control for the full effect not named in the record; Potency, µM (doses to about 92.2 µM), inactives show at the highest dose activity change, negative = less growth; actives 0.21% (n = 360,000); AID 651644; active = well fitted falling curve with a large enough effect; inconclusive = small, poorly fitted or top-dose-only effect; inactive = no such curve, though single readings can be large or run the other way;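 also: % is scaled to controls: 0 for no effect and ±100 for the full control effect; nearly all actives have a fitted effect of over 50% in size; the assay follows cell death caused by Vpr and the record does not say whether a fall means rescue or toxicity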
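Fission yeast strain RE007, carrying one chromosomally integrated HIV-1 vpr copy, was seeded at OD 0.01 in PMG+AL medium with 23 nL pinned compound. After 24 h at 30 °C and 99% humidity, viability was read by BacTiter-Glo luminescence.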
NS1 function inh: blocks influenza NS1 protein function | S. cerevisiae slowed by influenza A NS1, growth recovery by OD600 | Potency, µM (titrated, usually from 46.1 µM), without a hit: at the highest dose activity, positive = more growth | actives 0.4% (n = 270,000) | AID 2326; active means well fitted rising curve with a large enough effect; inconclusive means small, poorly fitted or top-dose-only effect; inactive means no such curve, though single readings can be large or run the other way; also: nearly all actives have a fitted effect of over 50% in size
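S. cerevisiae expressing influenza A NS1, grown in glucose, washed, then diluted 1:100 into pH 6.0 -URA galactose medium with 23 nl compound. Growth recovery read as OD600; NS1-free strain serves as control.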
LASV entry inh: blocks Lassa virus binding to or entry into cells. AID 540256. Potency, µM (doses to about 37.9 µM), without a hit: top-dose activity change, negative = inhibition, actives largely listed as inhibitors. Lassa virus pseudotype entry inhibition, cell reporter; control for the full effect not named in the record. actives 1.2% (n = 300,000); active means well fitted inhibition curve with a large enough effect; inconclusive means small, poorly fitted or top-dose-only effect, or effect the other way; inactive means flat fitted curve, though single readings scatter; tested in HEK293 cells; also: % is scaled to controls: 0 for no effect and ±100 for the full control effect; nearly all actives have a fitted effect of over 50% in size; luciferase read-out
Cruzain inh noDet: cruzain (T. cruzi) inhibition without detergent; P25779; purified cruzain, Z-FR-AMC fluorescence, no detergent; Potency, µM, inactives show max response, negative = inhibition, usual class: inhibitors; actives 2.3% (n = 200,000);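 also: plate controls were enzyme without inhibitor for no effect and buffer without enzyme for full effect; nearly all actives have a fitted effect of over 40% in size; top concentration of the series not given in the record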
Target sequence (P25779 123-467 limits assumed): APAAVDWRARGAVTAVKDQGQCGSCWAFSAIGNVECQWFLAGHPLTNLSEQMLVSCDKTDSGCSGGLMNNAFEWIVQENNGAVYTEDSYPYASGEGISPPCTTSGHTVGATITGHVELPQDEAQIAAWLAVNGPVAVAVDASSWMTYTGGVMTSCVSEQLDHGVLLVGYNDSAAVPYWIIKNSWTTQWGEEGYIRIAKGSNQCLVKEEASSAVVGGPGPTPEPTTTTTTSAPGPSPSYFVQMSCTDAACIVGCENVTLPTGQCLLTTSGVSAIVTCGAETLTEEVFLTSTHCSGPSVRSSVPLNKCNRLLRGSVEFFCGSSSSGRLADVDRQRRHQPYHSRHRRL
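Purified cruzain at 1.5 nM, pre-incubated 15 min with compound at room temperature in 100 mM sodium acetate pH 5.5, 5 mM DTT, 0.00005% Triton X-100. Reaction started with 2 uM Z-FR-AMC; AMC fluorescence increase over 60 s gives rate.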
2A StopGo: FMDV 2A StopGo reporter, luciferase signal; human cells with a luciferase reporter of 2A StopGo recoding; control for the full effect not named in the record; Potency, µM (titrated, usually from 57.9 µM), without a hit: top-dose signal change, negative = less light; actives 1.2% (n = 410,000); AID 1159524; active = well fitted falling curve with a large enough effect; inconclusive = small, poorly fitted or top-dose-only effect; inactive = no such curve, though single readings can be large or run the other way; tested in HEK293T cells; also: % is scaled to controls: 0 for no effect and ±100 for the full control effect; nearly all actives have a fitted effect of over 45% in size; luciferase light after 4 h
SARS PLpro yeast: inhibitors of SARS-CoV papain-like protease in yeast | S. cerevisiae expressing SARS-CoV PLpro, growth rescue; control for the full effect not named in the record | Potency, µM (titrated, usually from 32.9 µM), inactives show top-dose activity, positive = growth rescue | actives 0.19% (n = 330,000) | AID 485353; active means well fitted rising curve with a large enough effect; inconclusive means small, poorly fitted or top-dose-only effect; inactive means no such curve, though single readings can be large or run the other way; also: 0% is about no effect; nearly all actives have a fitted effect of over 55% in size; growth read by luminescence after 48 h
Cruzain inh Det: cruzain (T. cruzi) inhibition with detergent; purified cruzain, Z-FR-AMC fluorescence, 0.01% Triton; Potency, µM, inactives show max response, negative = inhibition, hits mostly inhibitors; actives 0.43% (n = 200,000);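 also: plate controls were neutral wells for no effect and buffer without enzyme for full effect; nearly all actives have a fitted effect of over 40% in size; top concentration of the series not given in the record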
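Compounds were screened in titration against cruzain (1.5 nM) with 0.01% Triton X-100 to counter colloidal aggregation. Activity was the AMC fluorescence increase over 60 s after adding 2 uM Z-FR-AMC at pH 5.5.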
The depositor's hits bear a star; u = inconclusive; x = not tested or not shown; & = joins results of further samples; [ ] = dose if it differs, or a comment. Unless noted, calls follow the shape of the dose curve; as a rule, active = well fitted curve in the direction sought with a large enough effect; inconclusive = small, poorly fitted or top-dose-only effect, or another doubt; inactive = no such curve, though single readings can be large; an effect the other way counts as inactive or inconclusive. Potency is read from the fitted curve at half-maximal effect.

(1) CC(C)CCNC(=O)Cn1c(=O)oc2cc(S(=O)(=O)N3CCc4ccccc43)ccc21
(2) COc1ccc(NC(=O)CSc2nc3c(c(=O)n2C)SCC3)cc1OC
(3) C/C(=N\NC(=O)CNc1cccc2ccccc12)c1ccc(Br)s1
(4) O=C(NCCCCc1ccccc1)C1CC(c2ccc([N+](=O)[O-])cc2)=NO1 (stereo unspecified)
(5) Cc1ccc(OCC(=O)Nc2ccc3c4c(cccc24)CC3)c(C)c1
(6) O=C(NCCCN1CCOCC1)c1ccc(CS(=O)(=O)c2c(Cl)cccc2Cl)o1
assay / compound	1	2	3	4	5	6
Marburg entry inh	x	-2%	u	x	25%[46.1 µM]	x
RE007 growth inh	0%	4%	9%	-8%	3%	-8%
NS1 function inh	-61%	7%	-9%	-19%	-2%	-5%
LASV entry inh	x	u	14%	x	7%	x
Cruzain inh noDet	-6%	x	u	0%	u	-4%
2A StopGo	-22%	-29%	-15%	-24%	-15%	-12%
SARS PLpro yeast	2%	1%	-17%	6%	22%	2%
Cruzain inh Det	-9.2%	x	-2.8%	-4.0%	-3.9%	-0.3%

(7) Cc1cccc2nc(-c3cccc(NC(=O)c4ccc(Cl)cc4)c3)cn12
(8) COc1ccc(NC(=O)c2ccccc2N(Cc2ccccc2)S(C)(=O)=O)c(OC)c1
(9) Cc1nc2cc(NCc3cc([N+](=O)[O-])ccc3O)ccc2n1Cc1ccccc1
(10) Cn1nc(C(=O)OCc2ccc(Br)cc2F)c2ccccc2c1=O
(11) CC12CC3CC(C)(C1)CC(C(=O)NCc1ccncc1)(C3)C2
(12) c1ccc(Cc2cc(-c3ccccc3)on2)cc1
assay / compound	7	8	9	10	11	12
Marburg entry inh	-5%	x	8%[46.1 µM]	u	x	u
RE007 growth inh	-19%	1%	-2%	15%	3%	-3%
NS1 function inh	-12%	-9%	x	-2%	9%	7%
LASV entry inh	-19%	x	3%[46.1 µM]	-29%[46.1 µM]	x	u
Cruzain inh noDet	u	x	x	x	x	-4%
2A StopGo	u	9%	-11%	u	-4%	49%[activator]
SARS PLpro yeast	-26%	3%	-2%	0%	4%	-5%
Cruzain inh Det	-5.2%	x	x	x	x	-5.8%

(13) Cc1c(Br)c([N+](=O)[O-])nn1CC(=O)NCc1ccco1
(14) COCc1cc(C)nc(OCC(=O)N/N=C/c2ccccc2)c1C#N
(15) Cc1cc(-c2cccnc2)c(C#N)c(SCC#N)n1
(16) CCOC(=O)c1ccc(NC(=O)Cn2cc3c(n2)CCC(C)C3)cc1 (stereo unspecified)
(17) O=C(Nc1nc2ccccc2n1Cc1ccc(Cl)cc1)c1ccco1
(18) Cc1ccc(NC(=O)c2ccco2)cc1C
assay / compound	13	14	15	16	17	18
Marburg entry inh	u	u	-24%	x	u	u
RE007 growth inh	7%	0%	10%	-4%	1%	u
NS1 function inh	10%	x	11%	u	8%	-156%
LASV entry inh	7%	-17%	5%	x	u	-11%
Cruzain inh noDet	6%	x	-25%	10%	-13%	12%
2A StopGo	-6%	2%	x	-1%	16%	23%
SARS PLpro yeast	14%	1%	2%	0%	-26%	-34%
Cruzain inh Det	-3.8%	x	0.3%	-4.5%	-2.6%	2.9%

(19) COc1ccc(C2=CC3=C(Br)C(=O)C(C)(O)C(=O)C3=CO2)cc1 (stereo unspecified)
(20) S=c1nccc(-c2ccc3c(c2)CCO3)[nH]1
(21) O=C(CCl)Nc1cc2[nH]c(=O)[nH]c2cc1Br
(22) COc1nccnc1NS(=O)(=O)c1ccc(NC(=O)c2ccccc2Br)cc1
(23) COc1cccc(CC(NC(C)=O)C(=O)NC2CCN(c3c4c(nc5ncnn35)CCC4)CC2)c1 (stereo unspecified)
(24) CS(=O)(=O)Cc1ccc(C(=O)NNC(=O)c2cc(-c3ccccc3)n[nH]2)cc1
assay / compound	19	20	21	22	23	24
Marburg entry inh	17%&17%[14.2 µM]	u	u	22%[46.1 µM]	6%&12%	2%
RE007 growth inh	u	-2%	-5%	-24%	2%	26%
NS1 function inh	-106%	15%	x	u	10%	x
LASV entry inh	x	25%	u	2%[46.1 µM]	u	6%
Cruzain inh noDet	17%	x	x	x	x	x
2A StopGo	-15%	10%	u	10%	-10%	-7%
SARS PLpro yeast	-5%	1%	4%	1%	x	0%
Cruzain inh Det	16%	x	x	x	x	x

2 compounds from above, limited to RE007 growth inh.
item	Structure	RE007 growth inh
24	CS(=O)(=O)Cc1ccc(C(=O)NNC(=O)c2cc(-c3ccccc3)n[nH]2)cc1	26%
10	Cn1nc(C(=O)OCc2ccc(Br)cc2F)c2ccccc2c1=O	15%

Next structures:
(25) CCOc1cccc2cc(C(=O)NCc3ccc(C)cc3)c(=N)oc12
(26) COc1ccc(C(=O)OC2CC3CCC(C2)[N+]3(C)[O-])cc1OC (stereo unspecified)
(27) O=C(NC1CCCC1)c1ccc2c(=O)n(Cc3ccccc3)c(SCc3ccccc3F)nc2c1
(28) COc1ccc2cc3cc(C(=O)N4CCN(c5cccc(C(F)(F)F)c5)CC4)sc3nc2c1
(29) CCOc1cccc(C(=O)Nc2ccc(-c3nc4cc(C)cc(C)c4o3)cc2)c1
(30) COc1ccc2nc(SCC(=O)NC3CC3)c(C#N)cc2c1
assay / compound	25	26	27	28	29	30
Marburg entry inh	-29%[46.1 µM]	x	x	-2%[46.1 µM]	29%[46.1 µM]	2%[46.1 µM]
RE007 growth inh	-3%	u	x	x	x	11%
NS1 function inh	6%	5%	x	x	x	25%
LASV entry inh	u	x	-10%[46.1 µM]	22%[46.1 µM]	0%[46.1 µM]	u
Cruzain inh noDet	x	x	1%	1%	-11%	x
2A StopGo	-6%	-11%	-4%	-7%	u	15%
SARS PLpro yeast	2%	1%	x	x	x	3%
Cruzain inh Det	x	x	-1.3%	-1.1%	3.2%	x

(31) O=C(CN(C(=O)c1ccco1)c1cccc(F)c1)NCc1ccc(F)cc1
(32) O=C(CN1CCN(Cc2ccccc2)CC1)N1CCCCCC1
(33) CC(C)CC(=O)Nc1ccc(C(=O)CN2C(=O)NC3(CCOc4ccccc43)C2=O)cc1 (stereo unspecified)
(34) N#Cc1ccccc1OCC(=O)NC(=O)NCc1ccccc1
(35) CCOCCCNC(=O)CCc1nnc2n(CCC(C)C)c(=O)c3ccccc3n12
(36) COc1ccc(CN(C)C(=O)c2cc(S(=O)(=O)N3CCCCCC3)ccc2OC)cc1OC
assay / compound	31	32	33	34	35	36
Marburg entry inh	-20%	-6%[46.1 µM]	u	-2%[46.1 µM]	12%[46.1 µM]	-2%
RE007 growth inh	10%	11%	-1%	-8%	-5%	-5%
NS1 function inh	-8%	x	x	x	6%	-8%
LASV entry inh	0%	-25%	-20%	14%[46.1 µM]	25%[46.1 µM]	u
Cruzain inh noDet	3%	x	x	x	x	x
2A StopGo	-8%	-9%	-10%	22%	-2%	-20%
SARS PLpro yeast	12%	1%	2%	0%	0%	19%
Cruzain inh Det	3.3%	x	x	x	x	x

(37) CCN(CC)S(=O)(=O)c1ccc2[nH]c(=O)cc(C(=O)NCC3CCCO3)c2c1 (stereo unspecified)
(38) CCOC(=O)N1CCN(C(=O)C2CCN(S(=O)(=O)c3cc(C)ccc3OC)CC2)CC1
(39) COc1ccc(-c2nnc(SCc3nc4ccccc4s3)n2C(C)C)cc1
(40) OC(CN1CCN(c2ccc(F)cc2)CC1)c1ccc(Cl)cc1 (stereo unspecified)
(41) CCN(CC)CCCNc1nc(C)cc(COC)c1C#N
(42) COc1ccc(CC(=O)NCCN2CCOCC2)cc1
assay / compound	37	38	39	40	41	42
Marburg entry inh	0%[46.1 µM]	-1%[46.1 µM]	-28%	u	u	x
RE007 growth inh	-10%	-4%	-12%	-8%	0%	-5%
NS1 function inh	x	x	-24%	1%	x	5%
LASV entry inh	0%	10%[46.1 µM]	-17%	10%[46.1 µM]	17%	x
Cruzain inh noDet	x	x	-17%	x	x	x
2A StopGo	14%	-8%	10%	-16%	4%	-8%
SARS PLpro yeast	-3%	0%	5%	0%	0%	3%
Cruzain inh Det	x	x	-3.1%	x	x	x

An excerpt from above in order of count of non-hydrogen atoms, smallest number first.
(20) S=c1nccc(-c2ccc3c(c2)CCO3)[nH]1
(41) CCN(CC)CCCNc1nc(C)cc(COC)c1C#N
(11) CC12CC3CC(C)(C1)CC(C(=O)NCc1ccncc1)(C3)C2
assay / compound	20	41	11
Marburg entry inh	u	u	x
RE007 growth inh	-2%	0%	3%
NS1 function inh	15%	x	9%
LASV entry inh	25%	17%	x
Cruzain inh noDet	x	x	x
2A StopGo	10%	4%	-4%
SARS PLpro yeast	1%	0%	4%
Cruzain inh Det	x	x	x

The listing continues:
(43) Cc1nn(C)c(-c2n[nH]c(=S)n2-c2ccccc2)c1Cl
(44) CC(C)CCn1c(=O)c2c(nc3n2CCCN3Cc2ccccc2)n(C)c1=O
(45) Cc1cc(C)n(-c2nnc(C)n2/N=C/c2ccccc2O)n1
(46) CN(O)/C=N/C(=S)Nc1ccc(Cl)cc1Cl
(47) COc1ccc(OC2CCN(S(=O)(=O)c3ccccc3)CC2)cc1
(48) COc1cc(NS(=O)(=O)c2ccc(NC(=O)c3ccc([N+](=O)[O-])cc3)cc2)ncn1
(49) CCC(O)C1CCN(Cc2cn(-c3ccc(OC)cc3)nc2-c2cccc(F)c2)CC1 (stereo unspecified)
(50) CC(C)CN(C(=O)c1ccc2c(c1)OCCO2)c1c(N)n(Cc2ccccc2)c(=O)[nH]c1=O
assay / compound	43	44	45	46	47	48	49	50
Marburg entry inh	u	u	8%	x	x	8%	u	4%
RE007 growth inh	16%	-5%	-10%	-25%	1%	-20%	11%	4%
NS1 function inh	8%	-5%	0%	-1%	-11%	-5%	1%	x
LASV entry inh	10%	u	-24%	x	x	10%	u	3%
Cruzain inh noDet	0%	x	3%	x	x	x	x	x
2A StopGo	19%	-25%	-4%	15%	-18%	-9%	0%	12%
SARS PLpro yeast	4%	-1%	-1%	0%	-2%	-2%	1%	x
Cruzain inh Det	1.0%	x	0.0%	x	x	x	x	x

This is a random part of the collection; any-hit rate near 4.7%.
